ClpP mod – qHTS Assay for Activators of ClpP. ATP-dependent Clp protease proteolytic subunit (Bacillus subtilis (strain 168)), P80244. purified B. subtilis ClpP, FRET peptide cleavage, 20 min. Potency, µM (doses to about 57.5 µM), for the others: at the highest dose activity change, negative = active. 340,000 tested, 1.9% active. AID 651965, 2013; active = well fitted falling curve with a large enough effect; inconclusive = small, poorly fitted or top-dose-only effect; inactive = no such curve, though single readings can be large or run the other way; note: potency is the fitted concentration of half-maximal effect; the source files actives as falling curves though it sought activators and does not explain the sign; nearly all actives have a fitted effect of over 65% in size; many hits overshoot -100%
Target sequence (P80244 whole entry, looked up): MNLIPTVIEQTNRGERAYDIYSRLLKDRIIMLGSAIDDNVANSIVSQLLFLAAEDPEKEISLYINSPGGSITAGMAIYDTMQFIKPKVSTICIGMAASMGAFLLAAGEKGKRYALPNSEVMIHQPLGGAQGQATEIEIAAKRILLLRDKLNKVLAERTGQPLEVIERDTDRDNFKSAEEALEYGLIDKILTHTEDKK
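Buffer: 100 mM Tris/HCl pH8, 100 mM KCl, 0.05% low protease BSA, 2.5% glycerol, 0.01% Tween-20. ClpP 10 microg/mL final; 20 min RT; delta FRET normalized to ADEP and DMSO controls.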
Sfp inh – inhibitors of Bacillus subtilis Sfp phosphopantetheinyl transferase; Q9F4F7; Biochemical Sfp PPTase activity, qHTS; Potency, µM, without a hit: max response, negative = inhibition, usual class: inhibitors; 310,000 tested, 3.5% active; AID 1490; active = well fitted inhibition curve with a large enough effect; inconclusive = small, poorly fitted or top-dose-only effect, or another doubt; inactive = no such curve, though single readings can be large or run the other way;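 note: the enzyme is Sfp with the accession as filed and its product quenches rhodamine fluorescence; potency is the fitted concentration of half-maximal effect; 0% = enzyme reaction without inhibitor and -100% = no enzyme wells; top concentration of the series not given in the record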
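Reaction rates are the 30-min fluorescence difference (ex 525, em 598 nm) in wells containing 15 nM Sfp, 5 uM rhodamine-CoA and 12.5 uM BHQ-2-YbbR at pH 7.6 with 10 mM MgCl2.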
Menin-MLL FL inh – inhibitors of human menin-MLL interaction, wild-type MLL peptide; Fluorescence polarization, fluorescein-MLL peptide displacement from menin; FP activity change, % at 61.4 µM; 290,000 tested, under 10 active; inconclusive = falling polarisation curve, or a change in total fluorescence; inactive = total fluorescence flat and polarisation flat or rising; no compound was filed as active; the % refers to the polarisation; negative = inhibition;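 note: % of control where 0% means no effect; inhibitors lower the polarisation; unlabelled MLL peptide was the positive control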
gsp antagonist – antagonists of gsp mutant (McCune-Albright syndrome); gsp-mutant cells, cAMP HTRF, 30 min; control for the full effect not named in the record; Potency, µM (series often up to 76.9 µM), without a hit: at the highest dose activity change, negative = inhibition, most hits filed as inhibitors; 340,000 tested, 0.4% active; AID 624288; active = falling curve of any shape with a large fitted effect; inconclusive = falling curve, mostly with a smaller effect; inactive = flat or rising curve; cell line not stated here;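 note: intracellular cAMP measured with PDE inhibitor Ro 20-1724 present during compound exposure; potency is the fitted concentration of half-maximal effect; % is set by controls: 0 for no effect and ±100 for the full control effect; nearly all actives have a fitted effect of over 65% in size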
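Measurement of cellular cAMP by homogeneous time-resolved fluorescence following a 30 min compound exposure at 37C. The PDE inhibitor […] was present throughout; the assay buffer was DPBS with 0.05% BSA and 0.005% Tween 20.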
TRPV1 PAM – potentiators of human vanilloid receptor 1 (TRPV1); AID 540277; 320,000 tested, 0.02% active; TRPV1-expressing cells, Fluo-8 calcium influx, capsaicin EC20 potentiation; host cell line not named in the record; control for the full effect not named in the record; potentiation, % at 8.33 µM; Q8NER1; active means potentiation above 80%; inconclusive means 30% to 80%; inactive means below 30%; note: 0% is about no effect
Target sequence (Q8NER1 whole entry, looked up): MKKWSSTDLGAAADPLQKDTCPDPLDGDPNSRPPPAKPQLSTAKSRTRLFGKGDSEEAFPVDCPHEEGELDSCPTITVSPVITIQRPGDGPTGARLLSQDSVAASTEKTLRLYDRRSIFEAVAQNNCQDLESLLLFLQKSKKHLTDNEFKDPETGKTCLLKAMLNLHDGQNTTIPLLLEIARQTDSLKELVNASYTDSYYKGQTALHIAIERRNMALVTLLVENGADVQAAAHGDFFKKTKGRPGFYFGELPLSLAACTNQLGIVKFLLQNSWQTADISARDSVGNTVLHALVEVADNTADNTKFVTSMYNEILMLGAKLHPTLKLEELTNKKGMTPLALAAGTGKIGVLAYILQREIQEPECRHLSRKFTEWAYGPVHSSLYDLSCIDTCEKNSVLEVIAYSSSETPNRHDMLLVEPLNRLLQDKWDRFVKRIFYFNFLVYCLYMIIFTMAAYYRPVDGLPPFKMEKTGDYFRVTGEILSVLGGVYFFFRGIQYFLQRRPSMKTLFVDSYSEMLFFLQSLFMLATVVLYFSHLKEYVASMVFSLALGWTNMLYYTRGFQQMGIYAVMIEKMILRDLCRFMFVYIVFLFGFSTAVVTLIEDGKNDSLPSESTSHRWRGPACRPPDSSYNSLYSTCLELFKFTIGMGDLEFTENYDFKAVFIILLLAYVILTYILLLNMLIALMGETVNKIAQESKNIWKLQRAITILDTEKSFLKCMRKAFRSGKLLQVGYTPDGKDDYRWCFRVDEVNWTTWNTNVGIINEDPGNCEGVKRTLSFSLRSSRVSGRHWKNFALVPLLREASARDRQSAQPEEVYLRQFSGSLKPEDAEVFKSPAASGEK
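Fluo-8 calcium influx in TRPV1-expressing cells, kinetic read (ex 480/em 520 nm). Compound added and read 3 min for agonist activity, followed by capsaicin at EC20 final and 2 min further read for enhancement.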
CtBP-E1A inh – CtBP/E1A binding inhibition. AlphaScreen GST-E1A/His-CtBP binding, 1536-well; stronger effect = lower value; control for the full effect not named in the record. activity change, % (concentration not given with the values). 340,000 tested, 0.49% active; in the data active means activity change below about -65%; inconclusive means about -30% to -65%; inactive means above about -30%; note: % is set by controls: 0 for no effect and ±100 for the full control effect
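Steps: dispense buffer (Tris pH 8.0, NaCl 300 mM, TCEP 1 mM, BSA, Tween 20); add 5X protein mix (GST-E1A, His-CtBP, 125 nM each); pin 23 nL compound; 2 h at 37 °C, dark; add 5X beads (50 ug/mL); 1 h; read.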
gsp ag – agonists of gsp mutant (McCune-Albright syndrome). gsp mutant cells, cAMP HTRF, 30 min; control for the full effect not named in the record. Potency, µM (doses to about 76.9 µM), inactives show at the highest dose activation (cAMP increase), most hits filed as activators. 340,000 tested, 0.13% active; active = well fitted activation curve with a large enough effect; inconclusive = small, poorly fitted or top-dose-only effect, or another doubt; inactive = no such curve, though single readings can be large or run the other way; cell line not stated here;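 note: phosphodiesterase inhibitor Ro 20-1724 added with compounds to block cAMP breakdown; potency is the fitted concentration of half-maximal effect; nearly all actives have a fitted effect of over 60% in size; about a fifth of the inactives were tested at one dose only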
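Cells stably selected in G418 were plated at 2000/well, grown 16-24 hr, then given compounds in DMSO with the PDE inhibitor […] (300 uM solution added) for 30 min at 37C; cAMP was read by HTRF.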
The depositor's hits bear a star; ? = inconclusive; . = not tested or not shown; & = joins results of further samples; [ ] = another dose, or the depositor's remark.

SMILES	ClpP mod	Sfp inh	Menin-MLL FL inh	gsp antagonist	TRPV1 PAM	CtBP-E1A inh	gsp ag
CCNC(=S)N(CCc1cccc(C)c1)Cc1cc2cc(OC)c(OC)cc2[nH]c1=O	18µM*	?	6.5	6%	2	1	6%
CC(OC(=O)C(C)N1C(=O)C2C3C=CC(C4CC34)C2C1=O)C(=O)c1ccccc1 (stereo not drawn)	-4.7%	13%	0.9	-3%	19	-5	0%
Cc1ccc(NC2CCCN(C(=O)CSc3ccccn3)C2)cc1C (stereo not drawn)	-5.7%	-26%	.	-5%	1	-10	-26%
CCC(C)NC(=O)CCSCCC(=O)NC(C)CC (stereo not drawn)	-1.6%	-1%	7.3	13%	1	3	29%
O=C(Nc1ccccn1)NC(C(F)(F)F)C(F)(F)F	-1.5%	6%	-1.0	-4%	-18	-7	11%
CC(=O)c1ccc2c(c1)OCCOCCOCCO2	.	2%	4.7	14%	-10	-5	28%
COc1ccc(OC)c(C2NC(=S)NC(C)=C2C(=O)Nc2ccccn2)c1 (stereo not drawn)	.	-3%	-0.7	3%	3	0	0%[15.4 µM]
Cc1ccc(-n2c(=O)c3sccc3n(CC(=O)N3CCCC3)c2=O)cc1	-0.6%	8%	2.5	-9%	-5	9	0%
Cc1cccc(CC(=O)N2CCN(C(=O)c3ccco3)CC2)c1	1.9%	27%	0.6	12%	-34	8	-4%
NS(=O)(=O)c1cccc(NC(=O)C2CC(=O)N(Cc3ccco3)C2)c1 (stereo not drawn)	.	-7%	1.1	3%	1	2	-18%[15.4 µM]
Cc1ccc2oc(Nc3nc(-c4ccccc4)cc(=O)[nH]3)nc2c1	.	-16%	2.0	-1%	4	1	16%[15.4 µM]
Cc1cc(=O)c2c(o1)CC(C)(C)CC2=O	-17%	3%	2.1	2%	4	2	-51%[inhibitor]

A second format for some results above.
> CCC(C)NC(=O)CCSCCC(=O)NC(C)CC (stereo not drawn)
- ClpP mod: -1.6%
- Sfp inh: -1%
- Menin-MLL FL inh: 7.3
- gsp antagonist: 13%
- TRPV1 PAM: 1
- CtBP-E1A inh: 3
- gsp ag: 29%

> O=C(Nc1ccccn1)NC(C(F)(F)F)C(F)(F)F
- ClpP mod: -1.5%
- Sfp inh: 6%
- Menin-MLL FL inh: -1.0
- gsp antagonist: -4%
- TRPV1 PAM: -18
- CtBP-E1A inh: -7
- gsp ag: 11%

The listing continues.
SMILES	ClpP mod	Sfp inh	Menin-MLL FL inh	gsp antagonist	TRPV1 PAM	CtBP-E1A inh	gsp ag
COc1ccc(/C(C)=N/NC(=O)c2ccc(NS(=O)(=O)c3cccs3)cc2)cc1	-7.7%	1%	-2.2	-15%	12	.	-3%
Cc1nc(N)sc1-c1csc(Nc2ccc(Cl)cn2)n1	-6.7%	20µM*	5.2	-7%	0	?	-3%
COc1ccc(S(=O)(=O)NNC(=O)c2cc3ccccc3o2)cc1	0.5%	-6%	0.1	19%	7	3	-24%
CCn1c2ccccc2c2cc(/C=N/n3c(-c4cc(C)[nH]n4)n[nH]c3=S)ccc21	.	-28%	5.2	35µM*	.	-22	-1%[15.4 µM]
COc1ccc(NC(=O)CSc2ccc3nnc(-c4cccnc4)n3n2)cc1OC	0.7%	9%	1.4	4%	4	-16	?
CCN1C(=O)/C(=C\c2cccn2-c2ccc([N+](=O)[O-])cc2)N(CC)C1=S	-0.8%	13%	0.6	2%	-6	12	17%
COc1ccccc1Nc1ccc(C(=O)NCc2cccs2)cn1	.	20%	-3.7	4%	3	-6	-16%[15.4 µM]
COc1cccc(C(C(=O)NCc2ccco2)N(C(=O)Cn2nnc3ccccc32)C2CC2)c1OC (stereo not drawn)	-1.6%	21%	4.5	-24%	7	0	2%
Cc1nn(-c2ccc(Cl)cc2)c(NC(=O)C(C)C)c(-c2ccccc2)c1=O	3.1%	20%	-0.3	0%	.	7	-1%
CN(Cc1ccc(F)cc1Cl)S(=O)(=O)c1cccs1	.	1%	.	8%	-8	2	-5%[15.4 µM]
COc1ccc2ncn(-c3ccccc3)c2c1	-1.5%	-5%	-0.2	7%	-19	4	16%
O=C1CCN(Cc2ccccc2)CCN1[C@H](CSc1ccccc1)Cc1ccccc1	-4.2%&1.5%	8%	-2.2	-21%	3	-8	.
O=C1CSC(c2ccccc2F)N1CCN1CCCCC1 (stereo not drawn)	-1.0%	4%	1.8	1%	0	1	-31%
CCc1ccc(/C=N/Nc2ncnc3nc[nH]c23)cc1	.	1%	-0.6	-5%	-20	?	25%
CCOc1ccc(NC(=S)N2CCC(C(N)=O)CC2)cc1	-3.0%	5%	5.9	8%	-3	-1	-9%[15.4 µM]
COCc1ccc(C(=O)N(C)C2CCCN(Cc3ccccc3F)C2)o1 (stereo not drawn)	-0.8%	12%	.	4%	4	-1	3%[15.4 µM]
COc1ccc(CNC(=O)COC(=O)c2ccccc2OCC(=O)Nc2ccc(SC(F)F)cc2)cc1	.	9%	-5.5	11%	-4	-6	-4%[15.4 µM]
COc1ccc(NCc2ccc([N+](=O)[O-])s2)c(OC)c1	-1.9%	-26%	6.3	-11%	28	-24	2%
CCc1ccccc1NC1c2ccccc2C(=O)N1Cc1ccco1 (stereo not drawn)	-1.0%	3%	3.6	-20%	-7	1	-189%[inhibitor]
CCOCCn1c(SCc2cccc(C)c2)nc2c1c(=O)[nH]c(=O)n2C	1.0%	-3%	2.0	1%	-5	6	?
COc1cc(OC)c(C(=O)OC(C)C(=O)NCc2ccc3c(c2)OCO3)cc1OC (stereo not drawn)	.	.	.	3%	.	-3	?
COc1ccc(-c2csc3ncnc(Cl)c23)cc1	-1.0%	-2%	-0.9	-15%	6	11	12%[15.4 µM]
NS(=O)(=O)c1ccc(NC(=O)COC(=O)c2cc3ccccc3cc2O)cc1	-1.7%	3%	4.4	-2%	-11	-3	-2%
COCCNC(=O)c1cccc(OC2CCN(Cc3ccc(F)cc3OC)CC2)c1	0.9%	7%	-5.7	-8%	8	-2	17%
O=C(Nc1cccc(NC(=O)c2c(F)cccc2F)n1)c1c(F)cccc1F	-1.8%	11%	-0.3	-12%	0	3	-3%[15.4 µM]
COc1ccc([N+](=O)[O-])cc1NC(=O)CN(C)S(=O)(=O)c1ccccc1	.	12%	3.9	-20%	-6	-2	2%[15.4 µM]
O=C(NCc1ccc2c(c1)OCO2)C1CC(=O)N(C2CCCCCCC2)C1 (stereo not drawn)	0.1%	9%	1.4	8%	-32	0	-50%[inhibitor]
Cc1cc(C(=O)Cn2nnc3ccccc3c2=O)c(C)n1-c1ccccc1F	0.6%	-2%	2.1	-2%	-1	0	-33%[inhibitor]
COc1ccc(C)cc1NC(=O)COC(=O)c1c(C)noc1C	0.1%	7%	-0.5	-14%	1	2	-32%
CCOC(=O)c1c(NC(=O)c2c(C)noc2C)sc2c1CCCCC2	-2.5%	56µM*	1.2	9%	-1	4	10%
CC1CCN(C(=O)COC(=O)C2CCN(S(=O)(=O)c3ccc(Cl)c(C(F)(F)F)c3)CC2)CC1	0.0%	.	.	-3%	-21	7	-26%
C[C@@H]1CN([C@@H](C)CO)C(=O)c2cc(Br)cnc2O[C@H]1CN(C)C(=O)c1ccc2c(c1)OCO2	-0.5%	.	.	.	.	2	?
Cc1ccc(NC(=O)Cn2c(=O)c(C)nc3ccccc32)cc1	0.5%	4%	13	10%	4	10	1%[15.4 µM]
O=C(NCc1ccco1)C1CCN(c2nc3ccccc3n2Cc2ccc(F)cc2)CC1	-2.8%	-8%	1.3	-14%	-4	-2	4%
Cn1c(=O)cc(SCC(=O)N2CCN(c3ccccc3)CC2)c2ccccc21	-10%&-4.7%	-18%	0.3	-7%	28	-8	?
O=C(c1ccc(COc2ccccc2Br)o1)N1CCN(c2ccccn2)CC1	-0.9%	-5%	4.3	-9%	-8	-3	-9%

Given with two lines to a compound: entries from further up.
Each structure is followed by: ClpP mod	Sfp inh	Menin-MLL FL inh	gsp antagonist	TRPV1 PAM	CtBP-E1A inh	gsp ag
O=C(Nc1cccc(NC(=O)c2c(F)cccc2F)n1)c1c(F)cccc1F
 : -1.8%	11%	-0.3	-12%	0	3	-3%[15.4 µM]
COc1ccc([N+](=O)[O-])cc1NC(=O)CN(C)S(=O)(=O)c1ccccc1
 : .	12%	3.9	-20%	-6	-2	2%[15.4 µM]

Continuation:
SMILES	ClpP mod	Sfp inh	Menin-MLL FL inh	gsp antagonist	TRPV1 PAM	CtBP-E1A inh	gsp ag
Cc1c(C(=O)N2CCOCC2)sc(NC(=O)Cc2ccccc2)c1C#N	-5.6%	24%	-0.7	4%	4	-2	-6%[15.4 µM]
CCCCN(CC)C(=S)Nc1ccc2nc(N3CCN(C)CC3)cc(C)c2c1	-1.5%	-12%	-0.4	7%	7	.	9%
COc1cccc(NC(=O)CCC2CCN(C(=O)Cc3cccc(F)c3)CC2)c1	4.6%	3%	.	-17%	6	-9	-3%
Cc1ccc(S(=O)(=O)N2CC(=O)Nc3ccccc32)cc1C	1.0%	14%	-1.7	3%	-1	14	3%

Part of the list above, set out differently:
| Structure | ClpP mod | Sfp inh | Menin-MLL FL inh | gsp antagonist | TRPV1 PAM | CtBP-E1A inh | gsp ag |
| --- | --- | --- | --- | --- | --- | --- | --- |
| Cc1c(C(=O)N2CCOCC2)sc(NC(=O)Cc2ccccc2)c1C#N | -5.6% | 24% | -0.7 | 4% | 4 | -2 | -6%[15.4 µM] |
| CCCCN(CC)C(=S)Nc1ccc2nc(N3CCN(C)CC3)cc(C)c2c1 | -1.5% | -12% | -0.4 | 7% | 7 | . | 9% |
| COc1cccc(NC(=O)CCC2CCN(C(=O)Cc3cccc(F)c3)CC2)c1 | 4.6% | 3% | . | -17% | 6 | -9 | -3% |

Single records, from the list above:
Listed for COc1ccc(S(=O)(=O)NNC(=O)c2cc3ccccc3o2)cc1 = ClpP mod: 0.5%; Sfp inh: -6%; Menin-MLL FL inh: 0.1; gsp antagonist: 19%; TRPV1 PAM: 7; CtBP-E1A inh: 3; gsp ag: -24%
Listed for O=C(Nc1cccc(NC(=O)c2c(F)cccc2F)n1)c1c(F)cccc1F = ClpP mod: -1.8%; Sfp inh: 11%; Menin-MLL FL inh: -0.3; gsp antagonist: -12%; TRPV1 PAM: 0; CtBP-E1A inh: 3; gsp ag: -3%[15.4 µM]

Screening results deposited in PubChem by National Center for Advancing Translational Sciences (NCATS).

Random draw from the library; 5.3% or so of the library scored in one or more.
